Screening data deposited in PubChem BioAssay by several laboratories.
INS promoter inh = TRM-6 insulin promoter activity inhibition | TRM-6 cells (human fetal islet line), insulin promoter-eGFP reporter, imaging; reporter expression induced with tamoxifen | 130,000 tested, 0.9% active | AID 1273 | inhibition, % at 2 µM;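 active means inhibition above the mean plus 3 SD, with well images judged a real hit on visual review, cut at about 60% in these data, passing the limit was not always enough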
HSV augment = HSV replication enhancement | HSV replication augmentation in cells, fold increase | maximum fold increase | 220,000 tested, 0.005% active | AID 1956;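 active means peak rise of 1.5-fold or more in the series; tested in PC3 cells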;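 further: first round at 10 µM; read as green reporter fluorescence; hits show the peak of a series up to 25 µM; 1 = signal of infected wells without compound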
RGS16-Gao HTS = RGS16-Galphao interaction regulator (human); O15492+P09471; bead-based flow cytometry RGS16-Galphao binding, fluorescence; actives lie on both sides; binding response (% of control), % at 10 µM; 220,000 tested, 0.38% active;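 active means below 25% or above 175%, edge rows of some plates excepted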;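 further: Galphao activated by GDP with aluminum fluoride before binding; 100% = wells without compound and 0% = beads without RGS; some results beyond the cut were filed as inactive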
Target sequence (O15492 whole entry, looked up): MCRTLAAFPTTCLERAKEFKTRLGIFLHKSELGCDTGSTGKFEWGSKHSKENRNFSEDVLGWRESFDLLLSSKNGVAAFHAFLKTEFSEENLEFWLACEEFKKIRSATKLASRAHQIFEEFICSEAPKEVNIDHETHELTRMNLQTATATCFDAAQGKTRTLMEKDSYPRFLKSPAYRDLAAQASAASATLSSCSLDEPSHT
Target sequence (P09471 whole entry, looked up): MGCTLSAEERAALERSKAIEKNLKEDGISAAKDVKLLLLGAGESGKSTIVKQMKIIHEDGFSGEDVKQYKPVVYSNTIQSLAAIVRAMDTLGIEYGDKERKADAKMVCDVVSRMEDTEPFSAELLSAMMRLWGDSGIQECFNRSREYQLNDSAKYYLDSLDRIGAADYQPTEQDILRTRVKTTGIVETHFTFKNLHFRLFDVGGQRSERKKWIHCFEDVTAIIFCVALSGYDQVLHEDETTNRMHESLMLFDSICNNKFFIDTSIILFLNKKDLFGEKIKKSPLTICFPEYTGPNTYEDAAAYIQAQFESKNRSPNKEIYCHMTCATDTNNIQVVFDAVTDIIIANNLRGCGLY
PKD1 inh = inhibitors of human PKD1 kinase; AID 797; Q15139; 200,000 tested, 0.056% active; inhibition, %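 (about 10 µM by stock and volumes)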; PKD1 kinase fluorescence polarization assay;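 active means inhibition of 50% or more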;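 further: controls were vehicle for no effect and a reference inhibitor for full effect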
GALR2 ag = activates the human galanin receptor 2; O43603; GALR2-expressing cells, agonist activation read-out; activation, %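 (tested at 5 µM)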; 140,000 tested, 0.48% active;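 active means above mean plus 3 SD of all compounds, about 5% in these data, not always enough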;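 further: 0% = vehicle buffer wells and 100% = reference agonist at full effect; tested in CHO reporter cells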
Target sequence (O43603 whole entry, looked up): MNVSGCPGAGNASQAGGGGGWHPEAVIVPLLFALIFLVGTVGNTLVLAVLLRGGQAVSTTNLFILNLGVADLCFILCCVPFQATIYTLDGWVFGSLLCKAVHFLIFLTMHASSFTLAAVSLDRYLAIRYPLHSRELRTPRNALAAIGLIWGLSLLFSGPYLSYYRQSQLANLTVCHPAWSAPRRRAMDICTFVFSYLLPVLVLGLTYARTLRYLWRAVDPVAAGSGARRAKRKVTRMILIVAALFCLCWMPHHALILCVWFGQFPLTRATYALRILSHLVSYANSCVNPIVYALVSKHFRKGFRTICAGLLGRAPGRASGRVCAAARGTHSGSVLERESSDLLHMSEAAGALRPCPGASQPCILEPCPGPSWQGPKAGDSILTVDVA
INS promoter inh cell count = recorded beside INS promoter inh, whose call it bears; normalized cell count, %; measured here: cell count, toxicity; reference of the scale not given here;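 cells exposed to compound for 48 h; stained nuclei by imaging scaled within each plate; lower means fewer cells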
HSV augment primary fold = further read-out of HSV augment, marked with its call; fold increase; compound at 10 µM; measured here: primary screen fold increase 10 uM; tested in PC3 cells;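 GFP signal in the first replicate; 1 = infected wells without compound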
* hit, by the source's call; i = inactive; / = no result given.

SMILES	INS promoter inh	INS promoter inh cell count	HSV augment	HSV augment primary fold	RGS16-Gao HTS	PKD1 inh	GALR2 ag
COc1cccc(C2CC(c3cccc(OC)c3)n3nc(N)nc3N2)c1 (configuration not stated)	/	/	i	0.69	106	-18	0.0
CC(=O)Nc1ccc(NS(=O)(=O)c2cc([N+](=O)[O-])ccc2C)cc1	24	143	i	1.1	92	5	/
OCCC1CN(Cc2cccc3nonc23)CCN1Cc1ccsc1 (configuration not stated)	/	/	i	0.72	103	/	/
COc1ccc(C(=O)Cn2c(C(=O)/C=C/c3ccccc3)nc3ccccc32)cc1	-16	82	i	1.1	103	-7	-0.6
Nc1ccccc1SC(C[N+](=O)[O-])c1ccccc1 (configuration not stated)	/	/	i	0.9	86	/	/
CSc1nnc(CNC(=O)c2ccccc2)n1-c1ccc(F)cc1	10	87	i	0.92	103	-5	-2.8
NS(=O)(=O)c1cccc(NC(=O)c2cncc(Br)c2)c1	/	/	i	0.86	105	/	/
O=C(c1ccc(CSCc2ccccc2F)o1)N1CCN(c2ccc(N3CCOCC3)nn2)CC1	-30	65	i	0.94	98	-3	-0.7
COc1ccc(Br)cc1C(=O)Nc1ccc(C(=O)NCC(C)C)cc1	/	/	i	0.86	99	0	/
COc1ccc(C(=O)NCCn2cc(SCC(=O)Nc3cc(C)on3)c3ccccc32)cc1OC	/	/	i	1	100	18	-1.3

2 entries from above in a different format.
The line under a structure holds: INS promoter inh | INS promoter inh cell count | HSV augment | HSV augment primary fold | RGS16-Gao HTS | PKD1 inh | GALR2 ag
NS(=O)(=O)c1cccc(NC(=O)c2cncc(Br)c2)c1
→ / | / | i | 0.86 | 105 | / | /
O=C(c1ccc(CSCc2ccccc2F)o1)N1CCN(c2ccc(N3CCOCC3)nn2)CC1
→ -30 | 65 | i | 0.94 | 98 | -3 | -0.7

The listing continues:
SMILES	INS promoter inh	INS promoter inh cell count	HSV augment	HSV augment primary fold	RGS16-Gao HTS	PKD1 inh	GALR2 ag
CCC(=O)Nc1cc(=O)[nH]c2nc(-c3ccc(Cl)cc3)nn12	/	/	i	0.95	105	/	/
Cc1ccc(-c2sc(-c3ccccc3)nc2CC(=O)Nc2ccccc2F)cc1	31	129	i	0.83	107	9	-2.3
O=C(Cc1ncc(C(F)(F)F)cc1Cl)N1CCN(c2ccccn2)CC1	-6	98	i	0.97	102	-7	-1.4
COc1cc([C@@H]2[C@H]3CNCC=C3C(C#N)=C(N)C2(C#N)C#N)ccc1OC(C)C	-200	134	i	1	118	-2	0.2
CCN(CC)S(=O)(=O)c1ccc(N2CCCC2)c(NS(=O)(=O)c2ccc([N+](=O)[O-])cc2)c1	/	/	i	0.84	101	-2	-0.2
CNC(=O)CN(c1cccc2ccccc12)S(C)(=O)=O	47	48	i	1.1	97	-2	-0.9
CC(C)N1CCN(C2CSCCSC2)CC1CCO (configuration not stated)	/	/	i	0.95	97	/	/
Cc1ccc(/C=N/NC(=O)c2nnn(-c3nonc3N)c2CSc2ccccc2)cc1	/	/	i	0.9	101	/	/
COCC(=O)Nc1ccc(C(=O)Nc2ccccc2Cl)cc1	/	/	i	1	112	0	/
Cc1ccc(C2=NN(C(=O)c3cccs3)C(c3ccccc3O)C2)cc1 (configuration not stated)	/	/	i	0.9	100	2	/
CN(C)CCCN1CC(C(=O)O)CC1=O (configuration not stated)	13	95	i	1.1	98	-8	-2.7
O=C(Cn1ccc(C(F)(F)F)n1)Nc1cccc(S(=O)(=O)N2CCCCC2)c1	/	/	i	0.88	103	3	/
C[C@]12C[C@H](O)[C@H]3[C@@H](CCC4=CC(=O)CC[C@@]43C)[C@@H]1CC[C@@H]2C(=O)CO	43	142	i	0.69	105	-2	-0.2
CCOC(=O)N1CCN(c2nc(C(F)(F)F)nc3c(C)cc(C)cc23)CC1	50	163	i	0.9	106	-2	-2.8
CCOc1ccc2nnc(-c3ccc(Br)cc3)n2n1	61	95	i	0.88	88	-1	1.2
CC1=CS(=O)(=O)CC1Sc1nc(C)n[nH]1 (configuration not stated)	/	/	i	0.95	98	1	/
CC1CCc2c(sc(NS(=O)(=O)c3ccccc3)c2C(=O)OC(C)C)C1 (configuration not stated)	-139	131	i	1.1	66	-2	-1.0
O=C(COc1cccc(NC(=O)c2ccccc2)c1)c1ccccc1	/	/	i	0.82	108	1	/
O=C(NNC(=O)C1CC1c1ccccc1)c1ccccc1F (configuration not stated)	/	/	i	1.1	102	-6	/
CC(=O)Nc1ccc(NC(=O)C(C)n2nc([N+](=O)[O-])c(Br)c2C)cc1 (configuration not stated)	/	/	i	0.8	102	9	-2.5
CCOC(=O)c1cc(OC(=O)c2cccnc2)n(-c2ccccc2)n1	-28	206	i	0.93	152	-11	1.3
CCSc1nnc(NC(=O)c2ccc(S(=O)(=O)N(C)C)cc2)s1	14	99	i	1	100	-12	/
CCCS(=O)(=O)C/C(N)=N/OC(=O)c1ccccc1Cl	/	/	i	0.94	102	/	/
COc1cc(S(=O)(=O)N(Cc2cccs2)CC2CCCO2)ccc1-n1cnnn1 (configuration not stated)	15	88	i	0.96	108	-6	0.4
COc1ccc(S(=O)(=O)NCCSc2ccc(Cl)cc2)cc1OC	-20	124	i	0.93	73	-10	-1.1
COc1ccccc1NS(=O)(=O)c1cccc2nsnc12	/	/	i	1.1	109	/	/
Oc1ccccc1Nc1nc(NCC2CCCO2)c2ccccc2n1 (configuration not stated)	15	96	/	/	89	-5	-2.5
C/C(=N\O)c1c(C)c2ccccc2n1C	/	/	i	0.92	103	-6	-0.5
C/C(=N\NC(=S)NCc1ccccc1)c1ccc(Cl)cc1	-29	119	i	1	99	-7	-0.6
Cc1ccc(N2/C(=N/c3nc(C)cc(C)n3)NC(=O)CC2C(=O)O)cc1 (configuration not stated)	-3	99	i	0.74	96	-6	-0.9
Cc1cc(C)c(NC(=O)c2oc3ccccc3c2COc2ccccc2)c(C)c1	-12	93	i	0.93	97	1	0.6
CC1(C)CC(=O)C(C(C2=C(O)CC(C)(C)CC2=O)c2ccc(Cl)c([N+](=O)[O-])c2)C(=O)C1 (configuration not stated)	/	/	i	1.1	55	-9	/
O=C(NC1CCCc2c1cnn2-c1ccc(F)cc1F)c1ccccn1 (configuration not stated)	20	101	i	1	84	9	/
COc1ccc(N(CC(=O)O)S(=O)(=O)c2ccccc2[N+](=O)[O-])c(OC)c1	-109	113	i	1.2	102	2	/
Cc1occc1C(=O)Nc1ccccc1NC(=O)c1ccoc1C	-12	96	i	0.92	/	-6	-1.5
Cc1nc(/N=C(\N)Nc2ccccc2)nc2ccccc12	-9	157	i	0.95	100	-4	-0.7
COc1ccccc1N1C(=O)C2ON(c3ccccc3)C(c3ccc(N(C)C)cc3)C2C1=O (configuration not stated)	/	/	i	1.4	99	0	-0.9
N#C/C(=C(/O)c1ccc([N+](=O)[O-])cc1)c1nnc2n1CCCCC2	/	/	i	0.9	107	-5	/
COc1ccc(/C(C)=N/OC/C(O)=C(\C#N)c2nc3ccccc3[nH]2)c(OC)c1	53	201	i	1	103	1	0.1
COc1cc(C(=O)NC(=S)Nc2ccc([N+](=O)[O-])cc2C)cc(OC)c1OC	14	110	i	0.97	109	-14	-1.1
Cc1nn(-c2ccccc2)c(N2CCCC2)c1/C=N/NC(=O)c1cc(-c2ccccc2)nc2ccccc12	/	/	i	0.84	99	-9	0.6
Cc1cc(C)nc(Sc2c(C)n[nH]c2C)n1	-3	95	i	1.2	99	0	-2.5
Cc1ccc(N2C(=O)CC(N3CCN(C4CCc5ccccc5C4)CC3)C2=O)cc1 (configuration not stated)	/	/	i	0.99	111	-2	0.0
Cc1ccc(N2C(=O)C(O)(C(F)(F)F)C3=C2CC(C)(C)CC3=O)cc1C (configuration not stated)	-3	105	i	0.89	118	-3	-1.7
COc1ccc(-n2c(C)cc(C(=O)CN3CCC(C)CC3)c2C)cc1	7	165	i	1	100	-2	/
O=C(Cc1cnc2ncnn2c1)N1CCc2c([nH]c3ccccc23)C1c1ccccn1 (configuration not stated)	/	/	i	1.1	98	-3	/
Cn1c(=O)n(C)c2cc(C(=O)c3ccccc3)ccc21	/	/	i	1.2	103	-3	-1.2
Cc1cnc(C(=O)N2CCCC(C(=O)c3ccc(Cl)cc3C)C2)cn1 (configuration not stated)	/	/	i	1	113	-9	/
CC(C)(C)n1nnnc1C(c1cccnc1)N(Cc1ccccc1)Cc1cccs1 (configuration not stated)	-46	109	i	1	95	-2	-0.8
CCC(C)(C)n1nnnc1C(c1cc2cc(C)cc(C)c2[nH]c1=O)N1CCN(C(=O)c2ccco2)CC1 (configuration not stated)	-37	128	i	0.76	98	-8	-1.8

Entries shown so far that contain an aryl thioether with sulfur outside any ring:
SMILES	INS promoter inh	INS promoter inh cell count	HSV augment	HSV augment primary fold	RGS16-Gao HTS	PKD1 inh	GALR2 ag
Nc1ccccc1SC(C[N+](=O)[O-])c1ccccc1 (configuration not stated)	/	/	i	0.9	86	/	/
CSc1nnc(CNC(=O)c2ccccc2)n1-c1ccc(F)cc1	10	87	i	0.92	103	-5	-2.8
COc1ccc(C(=O)NCCn2cc(SCC(=O)Nc3cc(C)on3)c3ccccc32)cc1OC	/	/	i	1	100	18	-1.3
Cc1ccc(/C=N/NC(=O)c2nnn(-c3nonc3N)c2CSc2ccccc2)cc1	/	/	i	0.9	101	/	/
CC1=CS(=O)(=O)CC1Sc1nc(C)n[nH]1 (configuration not stated)	/	/	i	0.95	98	1	/
CCSc1nnc(NC(=O)c2ccc(S(=O)(=O)N(C)C)cc2)s1	14	99	i	1	100	-12	/
COc1ccc(S(=O)(=O)NCCSc2ccc(Cl)cc2)cc1OC	-20	124	i	0.93	73	-10	-1.1
Cc1cc(C)nc(Sc2c(C)n[nH]c2C)n1	-3	95	i	1.2	99	0	-2.5

Other records follow.
SMILES	INS promoter inh	INS promoter inh cell count	HSV augment	HSV augment primary fold	RGS16-Gao HTS	PKD1 inh	GALR2 ag
O=c1c2cc3c(nc2[nH]c(=S)n1-c1ccccc1)CCCC3	/	/	i	0.95	103	/	/
Cc1ccc(C(=O)NC(=S)NCc2cccnc2)cc1	/	/	i	1.1	99	-3	/
COc1ccccc1-c1n[nH]c(=S)n1-c1ccccc1	/	/	i	0.99	95	4	-0.1
CCn1c(/C=C/c2c(C)n(CC)c3ccccc23)nc2ccccc2c1=O	/	/	i	1.1	103	-6	-0.5
CCOC(=O)c1c(-c2ccc(C)cc2)csc1NC(=O)c1ccc(N2C(=O)CCC2=O)cc1	19	178	i	0.99	104	-3	-0.8
Cc1ccc(C(=O)CSc2ncnc3sc4c(c23)CCCC4)cc1	-100	113	i	0.86	104	0	-2.5
C=CCNC(=O)/C(=C/c1cccc([N+](=O)[O-])c1)NC(=O)c1ccco1	/	/	i	0.96	111	-3	/
CC(C)N1CCN(Cc2ccc(OCc3ccccc3)cc2)CC1CCO (configuration not stated)	/	/	i	0.94	48	0	/
COC(=O)c1cc(NC(=O)Cc2ccccc2[N+](=O)[O-])cc(C(=O)OC)c1	26	98	i	0.9	107	8	-2.6
O=C(CC(CC(=O)c1ccccc1)C(=O)O)c1ccccc1	-10	40	i	0.75	103	-2	-1.7
Nc1c2c(nc3ccn(-c4ccccc4)c(=O)c13)CCCCC2	/	/	i	1	111	-4	-1.6
CC(NCc1ccc(OCc2ccc(Cl)cc2)cc1)C(O)c1ccccc1 (configuration not stated)	/	/	i	0.61	106	0	/
COc1ccc(S(=O)(=O)N2CCN(Cc3c[nH]c4ccccc34)CC2)cc1	0	121	i	0.88	96	0	-1.5
O=C(Nc1ncc(Cc2cc(Cl)ccc2Cl)s1)c1ccc([N+](=O)[O-])cc1	27	113	i	1	108	-9	-1.6
O=C(c1cnc2ccc(Cl)cc2c1Cl)N1CCOCC1	0	142	i	0.87	107	-9	/
Cc1cs/c(=N\N=C\c2ccc(O)cc2)n1Cc1ccco1	8	109	/	/	104	-6	-1.1
Cc1ccc(N2CCCn3c2cc(C)c(C#N)c3=O)cc1C	19	109	i	0.87	102	-12	-1.7
CCn1c(SCC(=O)Nc2ccc(OC)c(OC)c2)nnc1-c1cccs1	-26	107	i	0.71	100	-4	-0.8
COc1ccccc1-c1c(C)nn2c(C)cc(C)nc12	14	112	i	0.89	119	-10	-1.4
CCSc1nc(CC)c2c(c1C#N)CCCC2	-39	74	i	1.1	55	-4	-0.7
Cn1c(=O)[nH]c(=O)c2c1nc(N1CCCC1)n2CCCSc1nc2ccccc2o1	/	/	i	0.87	88	5	0.0
Cc1ccc(OCCn2cccn2)c(C)c1	/	/	i	0.98	102	1	/
Cn1c(=O)oc2cc(S(=O)(=O)NCCN3CCN(c4ccccc4)CC3)ccc21	/	/	i	0.93	101	4	-3.6
O=C(NNC(=S)NC1CCCCC1)c1ccccc1Cl	/	/	i	0.91	99	-4	/

Rows are unselected; overall some 1.3% were active at least once.
